Bioassay records as filed in PubChem BioAssay.
RanGTP-Imp inh: inhibitors of RanGTP-importin-beta interaction, primary screen, biochemical, FRET, CFP-Ran, YFP-importin-beta, homogeneous; 300,000 compounds, 1.1% hits; cell-free CFP-Ran/YFP-importin-beta FRET ratio; Ran GTPase (GTP-bound) - importin-beta complex; AID 2216, 2009; inhibition, % (test concentration not listed);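 active = most replicates above 15%; inconclusive = exactly half above 15%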;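 also: 0% = DMSO wells and 100% = Ran loaded with GDP instead of GTP; wells of about 40 µL received 100 nL stock; the first replicate is given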
Vif A3G: inhibitors of Vif binding to APOBEC3G peptide, primary screen, biochemical, TR-FRET, GST-Vif 1-94, biotin-A3G peptide, dose response retest (AID 1117319). Virion infectivity factor (Human immunodeficiency virus type 1 group M subtype B (isolate …. TR-FRET GST-Vif / biotin-A3G peptide binding; higher % means a stronger effect; test concentration not given here; strong numbers were not always called active. inhibition, %; hits with a dose series show IC50 in µM. 260,000 compounds, 0.57% hits;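 active = above the screen mean plus three standard deviations and confirmed in dose response; inconclusive = results disagree or hit not tested in dose response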;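 also: Vif residues 1-94 fused to GST binding biotinylated APOBEC3G peptide 110-148; 0% = full assay without inhibitor and 100% = GST in place of GST-Vif; retest series ran down from 100 µM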
HNF4A DNA FP: change in binding of human HNF4A to DNA, primary screen, biochemical, fluorescence polarization, FITC-DNA; Hepatocyte nuclear factor 4-alpha (Homo sapiens), P41235; 1 h; activity change, % at 10 µM; 360,000 compounds, 0.3% hits; AID 1224865, 2016; in the data active = activity change above about 30%, passing the limit was not always enough;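 also: controls were the assay level and a saturating level of protein; the project sought stronger binding though the title names inhibitors; some compounds called inactive have numbers as strong as hits; positive values seem to mean higher polarization but the record does not say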
Ecoli growth: E. coli growth inhibition, primary screen, OD600; Escherichia coli growth, 23 h; active compounds read low; OD600 absorbance (concentration not given with the values); 330,000 compounds, 0.21% hits; AID 1053175, 2014;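 active = OD600 absorbance below the run mean of sample wells minus 3.6 SD, in any replicate, cut at about 0.56 in these data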;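 also: stock transfer was 300 nL into about 60 µL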
UCH37 DUB inh: inhibitors of human UCH37 deubiquitinase, primary screen, biochemical, Ub-AMC cleavage, fluorescence; purified proteasome/UCH37; inhibition, % (no concentration beside the values); 330,000 compounds, 0.33% hits;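 active = mean of two replicates above 20%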;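 also: 0% = compound-free wells with enzyme and 100% = wells lacking proteasome; stock transfer was 100 nL into about 20 µL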
Target sequence (Q9Y5K5 whole entry, looked up): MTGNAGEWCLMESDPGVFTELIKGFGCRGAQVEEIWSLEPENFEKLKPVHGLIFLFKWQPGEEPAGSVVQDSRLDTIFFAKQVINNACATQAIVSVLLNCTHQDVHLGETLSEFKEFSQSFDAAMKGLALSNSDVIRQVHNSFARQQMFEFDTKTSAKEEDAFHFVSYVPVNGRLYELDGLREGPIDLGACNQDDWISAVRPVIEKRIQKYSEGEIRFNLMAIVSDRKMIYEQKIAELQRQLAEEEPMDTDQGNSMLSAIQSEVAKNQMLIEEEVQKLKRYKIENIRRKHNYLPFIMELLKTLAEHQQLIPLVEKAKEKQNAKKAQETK
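Material: human UCH37 enzyme supplied as purified proteasome complex / Amount: 0.15 nM proteasome as dispensed / Buffer or medium: pH 7.4 Tris-HCl (50 mM) with ovalbumin, ATP-MgCl2, DTT / Times: preincubation 30 min, reaction 25 min, room temperature / Technique: AMC fluorescence from Ub-AMC cleavage, excitation 355 nm, emission 460 nm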
AF4-AF9 inh: inhibitors of AF4 peptide binding to AF9, primary screen, biochemical, AlphaScreen, biotin-AF4 peptide, FLAG-AF9, single point. Protein AF-9 (Homo sapiens), P42568. inhibition, % at 10 µM. 350,000 compounds, 0.47% hits;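 active = every replicate reaching a set inhibition limit, whatever the replicate mean, cut at about 25% in these data; inconclusive = mean inhibition reaches that limit but some replicates miss it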;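 also: 0% = plate neutral control median and 100% = total signal loss; the record names both 10 and 1 µM as test concentration; the first replicate is given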
Target sequence (P42568 whole entry, looked up): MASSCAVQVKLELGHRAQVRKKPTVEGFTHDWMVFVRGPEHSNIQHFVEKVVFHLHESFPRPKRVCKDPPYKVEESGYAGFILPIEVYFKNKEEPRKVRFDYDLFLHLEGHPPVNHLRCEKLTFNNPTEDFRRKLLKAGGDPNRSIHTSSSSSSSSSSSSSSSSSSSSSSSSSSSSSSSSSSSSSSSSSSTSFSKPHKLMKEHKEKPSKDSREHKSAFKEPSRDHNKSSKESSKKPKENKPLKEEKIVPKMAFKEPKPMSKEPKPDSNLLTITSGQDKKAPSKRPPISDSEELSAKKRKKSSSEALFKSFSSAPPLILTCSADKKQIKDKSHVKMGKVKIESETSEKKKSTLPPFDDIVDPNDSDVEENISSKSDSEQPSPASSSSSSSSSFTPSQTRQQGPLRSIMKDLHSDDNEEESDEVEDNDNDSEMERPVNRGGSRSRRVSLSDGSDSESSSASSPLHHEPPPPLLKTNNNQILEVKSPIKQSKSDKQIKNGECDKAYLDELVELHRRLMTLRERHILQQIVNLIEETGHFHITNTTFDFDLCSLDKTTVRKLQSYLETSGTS
FGF22 binding: binders of human FGF22 protein, primary screen, FGF22 synaptogenesis inhibitor project, biophysical, thermal shift, single point. Fibroblast growth factor 22 (Homo sapiens), Q9HCT0. recombinant FGF22 thermal shift, SYPRO orange fluorescence; percent of sucrose octasulfate shift, DMSO zero. calls only at 9.99 µM. 340,000 compounds, 1.5% hits;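 active = melting point raised past a set limit in the mean and every replicate; inconclusive = no clear call; three in four hits are not shown here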
Target sequence (Q9HCT0 whole entry, looked up): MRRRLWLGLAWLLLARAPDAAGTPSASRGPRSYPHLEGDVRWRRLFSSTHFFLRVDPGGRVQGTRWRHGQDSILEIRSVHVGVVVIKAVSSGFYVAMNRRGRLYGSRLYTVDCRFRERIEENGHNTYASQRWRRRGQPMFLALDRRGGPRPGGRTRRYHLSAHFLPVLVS
Numbers without * were called inactive; i = inactive; ? = inconclusive; / = no result given; & = joins results of further samples. The list is partial. The share of hits here may be higher or lower than overall.

SMILES | RanGTP-Imp inh | Vif A3G | HNF4A DNA FP | Ecoli growth | UCH37 DUB inh | AF4-AF9 inh | FGF22 binding
CC(=O)Nc1ccc(S(=O)(=O)NC2CC(=O)N(c3ccc4c(c3)OCCO4)C2)cc1 (stereo not drawn) | -0.6 | 3.0% | 3.9 | 0.615 | 0.5 | -0.5 | i
O=C(Nc1ccccc1C(=O)Nc1ccncc1)c1ccccc1 | 0.7 | / | 2.9 | 0.653 | 3.7 | -1.1 | i
CCc1nnc(SCC(=O)Nc2nccs2)n1CC | 2.2 | 3.8% | -0.6 | 0.685 | 0.3 | -8.3 | i
Oc1cccc(Nc2c3ccccc3nc3ccccc23)c1 | 50.4* | / | -3.3 | / | / | 0.2 | i
C[C@H](CO)N1C[C@H](C)[C@@H](CN(C)CC2CCCCC2)Oc2c(NC(=O)Cc3ccccc3)cccc2C1=O | / | 4.9% | -0.9 | 0.722 | 1.7 | 1.4 | i
Cc1ccc2[nH]c(=O)c(CN(CCCN(C)C)C(=S)NCCc3ccccc3)cc2c1 | -0.3 | 17.3% | 5.6 | 0.651 | -0.8 | 11.0 | i
COc1ccccc1NC(=O)CC(=O)CSc1nnc(-c2ccc(C)cc2)n1-c1ccccc1 | 1.2 | / | -0.1 | 0.717 | 0.9 | / | /
CSCCC(NC(=O)c1ccc(Cl)cc1Cl)C(=O)N1CCN(C(=O)c2ccccc2)CC1 (stereo not drawn) | / | / | 4.2 | 0.695 | 2.7 | -13.1 | i
O=C(COC(=O)c1ccccc1OCc1ccc(Cl)cc1)NC1CC1 | ? | 0.1% | -0.1 | 0.733 | 5.1 | / | /
CCCNC(=O)C1(C)CCCN(C(=O)c2oc3ccccc3c2C)C1 (stereo not drawn) | / | / | 0.1 | / | / | 0.7 | i
COc1cccc(C(=O)Nc2nnc(Cc3ccc(OC)c(OC)c3)s2)c1 | 3.0 | 6.0% | -1.2 | 0.612 | 6.4 | / | i
COC(C(=O)Nc1ccnn1C1CCN(Cc2cccc(C)n2)CC1)c1ccccc1 (stereo not drawn) | 3.6 | / | -2.0 | 0.723 | 3.6 | -4.8 | i
CC(C)CN1CCC(CNC(=O)CCc2nnc(Cc3c[nH]c4ccccc34)o2)CC1 | -3.9 | -15.5% | 3.7 | 0.66 | 0.4 | 1.1 | i
CCCCC(CC)C(=O)Nc1cc([N+](=O)[O-])ccc1F (stereo not drawn) | 3.0 | / | 2.6 | 0.678 | 1.5 | 1.7 | i
COc1cc(Cl)ccc1OCc1cc(C(=O)N(C)Cc2nnc(C)o2)no1 | -2.9 | 0.0% | -0.5 | 0.685 | 1.3 | -2.7 | i
CC(C)NC(=O)Cn1cc(C(=O)C2CC2)c2ccccc21 | -0.2 | 0.0% | -2.1 | 0.647 | 5.5 | -0.5 | i
c1ccc(Oc2cccc(Oc3ccccc3)n2)cc1 | 5.0 | / | 3.1 | 0.664 | 1.3 | 1.9 | i
Cc1ccc(-c2c(C(=O)N/N=C/c3ccsc3)nnn2-c2nonc2N)cc1 | 1.1 | / | -5.3 | / | / | -4.7 | i
O=C(CSc1nnc(SCc2ccc(F)cc2)s1)Nc1ccc(C(=O)O)cc1 | ? | 4.6% | 2.4 | 0.72 | 2.3 | 5.3 | i
COc1cccc(NC(=S)N2CCC(NC(=O)C3CCCCC3)CC2)c1 | -2.4 | / | 28.1 | 0.657 | 2.7 | 7.7 | i
O=c1[nH]n(-c2ccccc2)c(=O)c2ccccc12 | / | 10.2% | -2.8 | 0.69 | 2.7 | 2.7 | i
O=[N+]([O-])c1cccc(-c2cn3nc(-c4ccccc4)c(-c4ccccc4)nc3n2)c1 | 70.2* | / | -0.2 | 0.634 | -66.1 | -1.8 | i
O=c1[nH]c(=O)n(Cc2ccccc2)c2nc(-c3ccc(C(F)(F)F)cc3)n(CCO)c12 | 1.8 | 9.3% | -4.4 | 0.685 | -404.2 | -1.3 | i
Cc1cc(=O)oc2c(CN3CCCCC3)c(O)ccc12 | / | -2.2% | 2.2 | / | / | -55.2 | i
COC(=O)c1ccc(C)c(NC(=O)CCc2ccc(OC)c(OC)c2)c1 | -2.7 | 13.2% | -1.8 | 0.693 | 0.6 | / | /
COCCCNc1nc2c([nH]1)c(=O)[nH]c(=O)n2C | -4.7 | -2.7% | 3.1 | 0.713 | 5.0 | -2.1 | /
O=C(c1ccncc1)N1CCc2ccccc2C1 | 4.5 | 1.8% | -0.5 | 0.705 | -0.5 | -3.0 | i
Cc1c(C)[n+](=O)c2c(n1[O-])C(Br)CCC2Br (stereo not drawn) | 7.3 | 20.5% | 1.1 | 0.705 | 6.0 | -1.5 | i
N#CCSc1ccc(S(=O)(=O)N2CCOCC2)cn1 | / | -2.0% | -0.3 | 0.738 | 0.9 | -0.7 | i
Cc1ccc([N+](=O)[O-])cc1NC(=O)CCSc1ccc(Cl)cc1 | -2.6 | 74.7% | -2.0 | 0.745 | -0.4 | / | /
CCCn1c(N)c(C(=O)CN(C)CC(=O)Nc2ccccc2C(F)(F)F)c(=O)[nH]c1=O | / | -4.8% | 4.1 | 0.686 | 0.0 | -0.7 | i
CCN1C[C@@H]2[C@@H]3C(=O)N(C)C(=O)[C@@H]3[C@](C)(C(=O)OC)N2C1=NC | / | -5.5% | 0.7 | 0.698 | -1.9 | 0.2 | /
O=C(Nc1ccccc1Cl)N1CCN(Cc2ccc3c(c2)OCO3)CC1 | 2.0 | 0.9% | -1.4 | 0.649 | 3.7 | -2.8 | i
COc1cc(OC)cc(C(=O)N2CCC(C(=O)NCCc3ccccc3)CC2)c1 | 4.9 | 1.9% | -2.4 | 0.627 | 0.2 | 1.2 | i
COc1cccc(C(=O)NCC2CCCN2S(=O)(=O)c2cccs2)c1 (stereo not drawn) | -1.5 | 8.6% | 1.3 | 0.647 | -1.3 | -54.9 | i
CC(C)c1ccc(NC(=O)CSc2nc3ccsc3c(=O)n2CCC(=O)O)cc1 | -4.8 | / | 2.3 | 0.645 | 3.5 | 0.1 | i
COc1cc(C(=O)NC2CCN(C)CC2)ccc1Nc1ncc2c(n1)N(C1CCC(O)CC1)CCC(=O)N2C (stereo not drawn) | / | / | 3.2 | 0.72 | 2.1 | / | /
NC(=O)Cn1cnc(-c2ccccc2)c1 | 0.2 | 6.7% | -2.7 | 0.696 | 3.0 | / | /
Nn1c(SCC(=O)NC2CCCC2)nnc1-c1ccccc1F | -0.8 | 5.3% | 2.0 | 0.723 | 1.4 | / | /
COc1ccc(Cc2nnc3c4cnn(C)c4ncn23)cc1 | 5.2 | -1.0% | 3.1 | 0.683 | 5.1 | / | /
CCN(CC)C(=O)C(C)N(C#N)c1nc(NC(C)C)nc(NC(C)C)n1 (stereo not drawn) | 1.5 | -2.6% | -2.5 | 0.735 | 2.4 | / | /
CC(=O)/C(=N/Nc1ccccc1)Sc1nnc(C(O)c2ccccc2)n1-c1ccccc1 (stereo not drawn) | 3.6 | / | -2.5 | / | / | 4.3 | i
O=C1CCCc2c1cc(-c1ccccc1)n2-c1ccc(O)cc1 | 0.3 | / | 2.9 | 0.716 | 4.0 | 0.4 | i
Cc1cccc(N2CC34C=CC(O3)C(C(=O)O)C4C2=O)c1 (stereo not drawn) | 4.0 | 27.8% | 1.2 | 0.729 | -0.2 | / | /
C=CCNC(=S)NNC(=O)c1ccncc1 | 6.4 | -0.5% | -4.6 | 0.678 | 3.4 | -0.6 | /
O=C(CO)N/N=C/c1ccc(Cl)cc1 | 0.8 | 10.5% | -0.2 | / | / | / | /
CC(C)NC(=O)CC1C(=O)NCCN1CC(c1ccccc1)c1ccccc1 (stereo not drawn) | 1.3 | 15.6% | 1.8 | 0.675 | -2.5 | -0.5 | i
CC(=O)Oc1ccc(/C=C(\NC(=O)c2ccco2)C(=O)Nc2ccc(C(C)=O)cc2)cc1 | -1.8 | -6.4% | 1.4 | 0.67 | 7.1 | 0.0 | i
CN(c1cccc(NC(=O)CN(c2ccc(C34CC5CC(CC(C5)C3)C4)cc2)S(C)(=O)=O)c1)S(C)(=O)=O | -1.3 | -1.0% | -1.5 | 0.673 | 1.2 | / | /
Cc1c(C(=O)OCC(=O)Nc2ccccc2OC(F)F)cccc1[N+](=O)[O-] | / | 8.0% | -5.6 | 0.719 | 3.0 | -0.8 | i
Nc1ccc(Cc2nc3cc4ccccc4cc3[nH]2)cc1 | -5.9 | -3.6% | / | 0.705 | 2.7 | / | /
Cc1cc(C)c(S(=O)(=O)Nc2ccc(OCC(=O)O)cc2)c(C)c1 | 2.7 | 8.6%&-2.6% | -0.7 | 0.731 | 2.7 | -1.5 | i
CCOC(=O)N1CCC(NC(=O)c2ccc(Cl)cc2)CC1 | 1.1 | 5.1% | -1.1 | 0.689 | 6.7 | -1.6 | i
COc1nc(-c2ccc(Cl)cc2Cl)nc2ccccc12 | -0.2 | / | -2.4 | 0.693 | 2.2 | -0.4 | i
CCOc1ccccc1NC(=O)CSc1nnc(-c2ccco2)o1 | -5.1 | -3.9% | 1.7 | 0.668 | 3.0 | / | /
C=CCN1C=C2C(=O)C(C)(OC(=O)CCC(=O)OC)C(=O)C=C2C=C1C1CC1 (stereo not drawn) | 0.4 | / | -6.1 | 0.711 | 5.1 | 0.9 | i
CC1CC(C)CN(C(=O)Cn2nnc(-c3ccccc3)n2)C1 (stereo not drawn) | -3.0 | / | 1.0 | 0.7 | 3.7 | 2.7 | i
Cn1c(SCC(=O)N2CCN(S(=O)(=O)c3ccccc3)CC2)nc2ccccc21 | 0.6 | -0.1% | -0.1 | 0.708 | 1.3 | 5.9 | i
CC(=O)Oc1ccc(-c2nc3cc(Cl)ccc3c(=O)o2)cc1 | 3.2 | -4.1% | -1.7 | 0.692 | -5.2 | 2.0 | i
Oc1ccc(C(c2nnnn2CCc2ccccc2)N2CCN(c3nc4ccccc4s3)CC2)cc1 (stereo not drawn) | 6.1 | 8.1% | 3.5 | 0.735 | 3.8 | -10.7 | i

Sorted by molecular weight (falling): some entries from above.
SMILES | RanGTP-Imp inh | Vif A3G | HNF4A DNA FP | Ecoli growth | UCH37 DUB inh | AF4-AF9 inh | FGF22 binding
C=CCN1C=C2C(=O)C(C)(OC(=O)CCC(=O)OC)C(=O)C=C2C=C1C1CC1 (stereo not drawn) | 0.4 | / | -6.1 | 0.711 | 5.1 | 0.9 | i
CC(=O)Oc1ccc(-c2nc3cc(Cl)ccc3c(=O)o2)cc1 | 3.2 | -4.1% | -1.7 | 0.692 | -5.2 | 2.0 | i
Nc1ccc(Cc2nc3cc4ccccc4cc3[nH]2)cc1 | -5.9 | -3.6% | / | 0.705 | 2.7 | / | /

(continued)
SMILES | RanGTP-Imp inh | Vif A3G | HNF4A DNA FP | Ecoli growth | UCH37 DUB inh | AF4-AF9 inh | FGF22 binding
Cc1nnc(SCC(=O)O)o1 | 7.0 | 3.5% | 1.1 | 0.66 | 2.2 | -0.9 | i
CCCn1nc(NS(=O)(=O)c2ccccc2)c2cc3ccccc3nc21 | 2.3 | 27.9% | -1.9 | 0.714 | 3.1 | / | /
O=C(NCCCN1CCCC1)c1cccc(N2CCCC2=O)c1 | 2.1 | 26.6% | 2.3 | 0.708 | -2.1 | / | /
C[C@H](O)[C@@H]1CN2CCc3c([nH]c4ccccc34)[C@@H]2C[C@@H]1N(C)C(=O)Nc1ccc(F)cc1 | / | / | -4.4 | / | / | 5.1 | i
